From PubChem BioAssay
gsp ag – agonists of gsp mutant (McCune-Albright syndrome); gsp mutant cells, cAMP HTRF, 30 min; control for the full effect not named in the record; 0.13% of 340,000 active; Potency, µM (top dose mostly 76.9 µM), for inactives: at the top dose activation (cAMP increase), actives largely listed as activators; active = well fitted activation curve with a large enough effect; inconclusive = small, poorly fitted or top-dose-only effect, or another doubt; inactive = no such curve, though single readings can be large or run the other way; cell line not stated here;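 further: phosphodiesterase inhibitor Ro 20-1724 added with compounds to block cAMP breakdown; potency means the concentration at half of the fitted maximal effect; nearly all actives have a fitted effect of over 60% in size; about a fifth of the inactives were tested at one dose only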
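Cells in DMEM/10% FBS with G418 were pretreated with compounds in DMSO plus […] (300 uM stock) for 30 min at 37C. cAMP was measured by HTRF (cAMP-d2 plus anti-cAMP antibody-K) after 30 min at room temperature.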
D2 ag – human D2 receptor agonism in beta-arrestin assay. P14416. DiscoveRx PathHunter D2 beta-arrestin, luminescence, 90 min; 100% = 57 uM dopamine signal. activation, % (test concentration not listed). 0.084% of 360,000 active; in the data active = activation above about 40%; inconclusive = about 15% to 40%; inactive = below about 15%; further: compound concentration not given in the record; the text of the record calls up to 30% inactive
Target sequence (P14416 whole entry, looked up): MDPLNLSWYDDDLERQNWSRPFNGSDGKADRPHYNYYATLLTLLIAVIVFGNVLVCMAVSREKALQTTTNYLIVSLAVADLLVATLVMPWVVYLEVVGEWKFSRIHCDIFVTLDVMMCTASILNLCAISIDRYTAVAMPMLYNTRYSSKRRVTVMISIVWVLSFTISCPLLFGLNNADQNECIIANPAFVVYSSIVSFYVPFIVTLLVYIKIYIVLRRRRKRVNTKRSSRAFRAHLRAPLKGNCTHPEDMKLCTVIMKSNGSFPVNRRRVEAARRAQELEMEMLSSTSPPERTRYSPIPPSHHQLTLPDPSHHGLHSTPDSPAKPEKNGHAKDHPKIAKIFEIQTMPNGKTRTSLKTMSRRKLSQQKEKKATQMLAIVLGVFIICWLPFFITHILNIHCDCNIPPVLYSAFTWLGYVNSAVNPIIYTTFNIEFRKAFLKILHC
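Agonist mode: compounds alone added to overnight-plated D2 PathHunter cells for 90 min at 37 C, with 57 uM final dopamine (EC100) defining full response. Beta-arrestin recruitment detected by chemiluminescent reagent, read after 1 h at ambient temperature.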
gsp antagonist – gsp mutant antagonism; AID 624288; Potency, µM (series often up to 76.9 µM), inactives show at the highest dose activity change, negative = inhibition, usual class: inhibitors; 0.4% of 340,000 active; gsp-mutant cells, cAMP HTRF, 30 min; control for the full effect not named in the record; active = falling curve of any shape with a large fitted effect; inconclusive = falling curve, mostly with a smaller effect; inactive = flat or rising curve; cell line not stated here;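 further: intracellular cAMP measured with PDE inhibitor Ro 20-1724 present during compound exposure; potency means the concentration at half of the fitted maximal effect; on the % scale 0 is the no-effect control and ±100 the full control effect; nearly all actives have a fitted effect of over 65% in size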
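Cells, 2000/well, grown 16–24 h in DMEM 10% FBS with 0.5 mg/ml G418, then compounds plus […] (300 uM addition stock), 30 min at 37C. cAMP read by HTRF (cAMP-d2 and anti-cAMP antibody-K in lysis buffer) after 30 min RT.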
Six1-Eya2 inh – inhibitors of human Six1/Eya2 interaction; Q15475+O00167; AlphaScreen GST-Six1/His-Eya2 binding, biochemical; active compounds read low; control for the full effect not named in the record; activity change, % (no concentration beside the values); 0.56% of 360,000 active; in the data active = activity change below about -65%; inconclusive = about -30% to -65%; inactive = above about -30%; further: on the % scale 0 is the no-effect control and ±100 the full control effect
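Homogeneous AlphaScreen proximity assay pairing GST-Six1 with His-tagged Eya2 (added as 5X mix: 250 nM and 500 nM) in 50 mM Tris pH 8.0, 300 mM NaCl, 1 mM TCEP. Glutathione donor and nickel acceptor beads; 1 h, 37 °C, dark.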
CtBP-E1A blk – inhibitors of CtBP/E1A interaction. AlphaScreen GST-E1A/His-CtBP binding, 1536-well; active compounds read low; control for the full effect not named in the record. activity change, % (no concentration beside the values). 0.49% of 340,000 active. AID 651724; in the data active means activity change below about -65%; inconclusive means about -30% to -65%; inactive means above about -30%; further: on the % scale 0 is the no-effect control and ±100 the full control effect
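Steps: dispense buffer (Tris pH 8.0, NaCl 300 mM, TCEP 1 mM, BSA, Tween 20); add 5X protein mix (GST-E1A, His-CtBP, 125 nM each); pin 23 nL compound; 2 h at 37 °C, dark; add 5X beads (50 ug/mL); 1 h; read.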
D2 potentiator – positive allosteric modulators of human D2 dopamine receptor; potentiation, % (test concentration not listed); P14416; 0.23% of 360,000 active; DiscoveRx D2 beta-arrestin cells, luminescence, 90 min; 100% = 57 uM dopamine signal; active = potentiation of 50% or more; inconclusive = 30% to 50%; inactive = 30% or less;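 further: compound concentration not given in the record; tested on top of an EC20 dose of dopamine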
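D2 cells co-treated with compound plus 50 nM dopamine (EC20) for 90 min at 37 deg C to detect potentiation. Beta-arrestin recruitment was read as enzyme-fragment luminescence after 1 h at ambient temperature. Full response was set by 57 uM dopamine.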
* marks the source's active call; other numbers are inactive results; u = inconclusive; x = no result given; [ ] = dose if it differs, or a comment.

nr	gsp ag	D2 ag	gsp antagonist	Six1-Eya2 inh	CtBP-E1A blk	D2 potentiator	Compound
1	-27%	4.7	5%	-7	-1	-7	CCC1CCCCN1CCCNC(=O)c1cc2c(=O)[nH]c3ccccc3c2n1C (stereo not given)
2	x	-2.7	x	3	8	-5	Cc1cc(C)n(CCNC(=O)[C@H]2O[C@@H](n3ccc(N)nc3=O)[C@H](O)[C@@H]2O)n1
3	-33%[inhibitor]	-2.6	x	7	2	5	CC(C)CC(=O)Nc1nnc(SCC(=O)NC2CCCC2)s1
4	3%	-0.6	9%	3	-2	-6	CCOC(=O)Nc1cc2c(cc1C(C)=O)OCO2
5	0%	-0.6	3%	2	5	-1	COc1c2c(cc3ccc(=O)oc13)CCO2
6	0%	-0.1	0%	-4	4	4	NC(=O)Cn1c(=O)oc2ccccc21
7	6%	-0.5	-3%	0	6	1	CCN(Cc1nc2cc(Cl)ccc2c(=O)[nH]1)C(=O)c1nn(C)c(=O)c2ccccc12
8	-25%	-2.9	8%	2	-9	-23	CC(C)(C)NC(=O)CCCCCCCC(=O)NC(C)(C)C

Structural class: those above containing four or more nitrogen atoms (4)
nr	gsp ag	D2 ag	gsp antagonist	Six1-Eya2 inh	CtBP-E1A blk	D2 potentiator	Compound
1	-27%	4.7	5%	-7	-1	-7	CCC1CCCCN1CCCNC(=O)c1cc2c(=O)[nH]c3ccccc3c2n1C (stereo not given)
2	x	-2.7	x	3	8	-5	Cc1cc(C)n(CCNC(=O)[C@H]2O[C@@H](n3ccc(N)nc3=O)[C@H](O)[C@@H]2O)n1
3	-33%[inhibitor]	-2.6	x	7	2	5	CC(C)CC(=O)Nc1nnc(SCC(=O)NC2CCCC2)s1
7	6%	-0.5	-3%	0	6	1	CCN(Cc1nc2cc(Cl)ccc2c(=O)[nH]1)C(=O)c1nn(C)c(=O)c2ccccc12

New compounds follow.
nr	gsp ag	D2 ag	gsp antagonist	Six1-Eya2 inh	CtBP-E1A blk	D2 potentiator	Compound
9	-6%[15.4 µM]	-2.9	-15%	5	-4	-5	CCOC(=O)Cn1nc(C)n(-c2ccc(F)cc2)c1=O
10	-65%[inhibitor]	-6.9	-2%	u	u	-43	COc1cnc(-c2ccccn2)nc1Oc1cccc(Cl)c1
11	5%	-5.2	3%	16	1	-16	COC(=O)NNC(=S)Nc1ccc(Br)cc1
12	4%	-4.5	4%	15	x	-4	COCCCNc1nc2ccccc2nc1NS(=O)(=O)c1ccc(Cl)cc1
13	u	-2.1	-7%	-6	-16	8	O=C(Nc1ccccc1O)c1c(O)c2c([nH]c1=O)CCCC2
14	2%	-1.8	6%	0	13	-3	CC(=O)Nc1ccc(NC(=O)CCSCCc2ccccn2)cc1
15	27%[15.4 µM]	-1.9	22%	-67*	u	-3	Fc1cccc(CSc2ccc3nnc(-c4cccnc4)n3n2)c1
16	3%[15.4 µM]	-4.5	2%	-1	-3	1	Cc1cccc(-n2c(O)cnc2Nc2nc(C)cc(C)n2)c1
17	-2%[15.4 µM]	-0.3	-3%	-1	2	11	CC(=O)Nc1cccc(NC(=O)CSc2ncc(C(=O)Nc3ccc(F)cc3)c(=O)n2C)c1
18	14%	-4.1	-13%	-1	-7	-16	CCc1cc(-c2n[nH]c(=S)n2-c2cccc(C)c2)cs1
19	-41%[inhibitor]	2.4	8%	-1	1	-2	CSCCC(NC(=O)c1ccccc1)C(=O)NCc1ccco1 (stereo not given)
20	-7%	-2.0	-8%	9	-1	3	CCCOC(=O)Nc1ccccc1C(N)=O
21	3%[15.4 µM]	-1.9	x	4	4	-3	Cc1ccc(N=Cc2c(O)cc(C)oc2=O)c(C)c1
22	6%	-3.4	6%	14	-2	-1	FC(F)(F)c1ccc(Oc2ccccc2Cl)nc1
23	12%	-16	-3%	5	-1	-34	CN1C(=O)C(O)(C2COC(C)(C)CC2=O)c2cc(Br)ccc21 (stereo not given)
24	-21%	4.1	7%	-9	-5	23	COc1ccc(OC)c(N2C(=O)[C@@H]3C(c4ccccc4Cl)=NO[C@@H]3C2=O)c1
25	-14%[15.4 µM]	0.8	9%	-3	5	0	O=C(c1ccc2c(=O)n3c(nc2c1)CCC3)N1CCN(S(=O)(=O)c2cccc(F)c2)CC1
26	7%	-0.7	-7%	-3	3	12	CCCC1OC23CCCCC2C(C#N)(C(=N)O3)C1(C#N)C#N (stereo not given)
27	12%	1.2	-4%	14	3	-1	O=C(OCc1nnc(-c2ccccc2)o1)c1ccc2c(c1)OCO2
28	3%[15.4 µM]	-2.6	11%	-3	8	-13	CC(=O)Nc1ncc(Cc2cccc(Cl)c2Cl)s1
29	-14%	0.4	-24%	-1	2	1	Cc1ccc(CNC(=O)CCS(=O)(=O)c2ccc(Br)s2)o1
30	u	-0.9	-7%	-18	-18	18	Cc1ccc(C2C(C#N)=C(N)Oc3c2oc(CO)cc3=O)o1 (stereo not given)
31	-11%	-2.8	-9%	-13	x	-12	O=C(c1ccc2c(c1)OCO2)C1CCCN(Cc2ccc(OC(F)F)cc2)C1 (stereo not given)
32	19%	-2.8	u	-1	0	4	c1ccc(-c2csc3ncnc(NCCN4CCOCC4)c23)cc1

Of the compounds above, these have an aryl methoxy group:
nr	gsp ag	D2 ag	gsp antagonist	Six1-Eya2 inh	CtBP-E1A blk	D2 potentiator	Compound
5	0%	-0.6	3%	2	5	-1	COc1c2c(cc3ccc(=O)oc13)CCO2
10	-65%[inhibitor]	-6.9	-2%	u	u	-43	COc1cnc(-c2ccccn2)nc1Oc1cccc(Cl)c1
24	-21%	4.1	7%	-9	-5	23	COc1ccc(OC)c(N2C(=O)[C@@H]3C(c4ccccc4Cl)=NO[C@@H]3C2=O)c1

Continued:
nr	gsp ag	D2 ag	gsp antagonist	Six1-Eya2 inh	CtBP-E1A blk	D2 potentiator	Compound
33	-28%	-0.1	-15%	2	x	-9	CC(=O)c1ccc(NC(=S)N2c3ccccc3CC2C)cc1 (stereo not given)
34	-12%	-0.1	u	-11	x	-13	CCOC(=O)C1=C(O)C(=O)N(c2ccccc2)C1c1cccc([N+](=O)[O-])c1 (stereo not given)
35	-26%	-0.9	-7%	-1	-4	-16	CC1=CC(C)(C)N2C(=O)C3(C(C#N)=C(N)Oc4cc(C)oc(=O)c43)c3cc(C)cc1c32 (stereo not given)
36	x	-2.1	0%	1	-9	-6	COC(=O)[C@]1(Cc2ccccc2)N[C@H](CN(C)C(=O)Nc2ccc(F)cc2)[C@@H]2C(=O)N(Cc3ccccc3)C(=O)[C@@H]21
37	-33%[inhibitor]	-2.3	8%	0	3	-5	CCOC(=O)c1cnc2nc(NCc3ccc(OCc4ccccc4)cc3)[nH]n2c1=O
38	-49%[inhibitor]	-6.4	-13%	1	10	-14	COc1cc(CSc2nnnn2-c2ccc(C)cc2)cc(OC)c1OC
39	20%	0.0	-2%	-1	5	5	COc1ccc(NC(=O)C2CC(=O)NC(Nc3cccc(C)c3)=N2)cc1 (stereo not given)
40	u	-4.1	-6%	3	0	-13	Cc1cc(C)c(S(=O)(=O)c2cc(F)ccc2C)c(=O)[nH]1

Part of the list above with just D2 ag and Six1-Eya2 inh:
| nr | SMILES | D2 ag | Six1-Eya2 inh |
| --- | --- | --- | --- |
| 33 | CC(=O)c1ccc(NC(=S)N2c3ccccc3CC2C)cc1 (stereo not given) | -0.1 | 2 |
| 34 | CCOC(=O)C1=C(O)C(=O)N(c2ccccc2)C1c1cccc([N+](=O)[O-])c1 (stereo not given) | -0.1 | -11 |
| 35 | CC1=CC(C)(C)N2C(=O)C3(C(C#N)=C(N)Oc4cc(C)oc(=O)c43)c3cc(C)cc1c32 (stereo not given) | -0.9 | -1 |
| 36 | COC(=O)[C@]1(Cc2ccccc2)N[C@H](CN(C)C(=O)Nc2ccc(F)cc2)[C@@H]2C(=O)N(Cc3ccccc3)C(=O)[C@@H]21 | -2.1 | 1 |
| 37 | CCOC(=O)c1cnc2nc(NCc3ccc(OCc4ccccc4)cc3)[nH]n2c1=O | -2.3 | 0 |
| 38 | COc1cc(CSc2nnnn2-c2ccc(C)cc2)cc(OC)c1OC | -6.4 | 1 |
| 39 | COc1ccc(NC(=O)C2CC(=O)NC(Nc3cccc(C)c3)=N2)cc1 (stereo not given) | 0.0 | -1 |

Later entries:
nr	gsp ag	D2 ag	gsp antagonist	Six1-Eya2 inh	CtBP-E1A blk	D2 potentiator	Compound
41	-8%	-1.6	7%	2	-10	1	COc1ccc(N(CC(O)Cn2c(C)nc3ccccc32)S(=O)(=O)c2ccccc2)cc1 (stereo not given)
42	2%	-1.4	0%	-13	-6	-40	CCc1ccccc1NC(=O)c1ccc(CN2CCC(Cc3ccccc3)CC2)cc1
43	64%	-1.2	-12%	10	11	-5	Cc1cc(Oc2ccc(-c3ccccc3)cc2)nc(N2CCOCC2)n1
44	3%	-0.9	-2%	-5	-7	17	COc1ccc(N2CCN(Cc3oc(CO)cc(=O)c3O)CC2)cc1
45	-30%[inhibitor]	-9.3	x	-4	0	-3	CC(C)CC1NC(=O)c2cccnc2-n2c1nc1ccccc1c2=O (stereo not given)
46	-37%[inhibitor]	-1.6	-10%	2	15	-7	COc1ccc(/C=C/C(=O)NCCOc2ccc(C)cc2)cc1
47	12%	3.3	4%	-15	0	2	O=C(Nc1ccc(S(=O)(=O)NCc2ccco2)cc1)c1ccc(F)cc1
48	-7%[15.4 µM]	-2.2	-20%	-8	2	4	Cc1onc(-c2ccccc2)c1-c1nnc(COC(=O)c2ccc(O)cc2)o1
49	-33%	-1.2	3%	-1	-2	1	Cc1cc(C)n2cc(CSc3ccc(Br)cc3)nc2n1
50	-1%[15.4 µM]	-1.0	-8%	3	2	1	CCn1cc(C(=O)O)c(=O)c2cc(F)c(N3CCN(C(=S)NC(=O)c4cccc(C)c4)CC3)cc21
51	6%[15.4 µM]	-2.3	3%	11	-1	2	CCCCC(NC(C)=O)c1nc2ccccc2n1CCCC (stereo not given)
52	20%	-2.1	-11%	3	5	-3	COc1ccccc1NS(=O)(=O)c1ccc(O)c(C(=O)OCC(=O)Nc2ccccc2F)c1
53	-7%[15.4 µM]	-1.7	8%	8	11	-1	CC(=O)c1c(C)nn(-c2ccccc2)c1C
54	3%	0.2	3%	-10	0	-15	COc1cc(C(=O)NC(=S)Nc2ccc(Cl)cn2)cc(OC)c1OC
55	-5%	1.3	9%	2	1	16	COc1ccc(-c2nnc(SCc3nnc(-c4ccccc4)o3)n2C)cc1OC
56	-13%	2.0	-13%	-10	x	-7	COc1cc(OC)c(OC)cc1/C=C1/C(=O)N=C(N)N1C
